Bioassay records from PubChem BioAssay.
HPGD block: inhibitors of human 15-hydroxyprostaglandin dehydrogenase (HPGD); purified HPGD, NADH fluorescence kinetic, PGE2 substrate; hit rate 4.3% among 150,000; Potency, µM, without a hit: at the highest dose activity change, negative = inhibition, most hits filed as inhibitors; AID 894; P15428; active = well fitted inhibition curve with a large enough effect (not every such curve was filed as active); inconclusive = small, poorly fitted or top-dose-only effect, or another doubt; inactive = no such curve, though single readings can be large or run the other way;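 further: top concentration of the series not given in the record; plate controls included wells without enzyme; inactives centre near -10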
Target sequence (P15428 whole entry, looked up): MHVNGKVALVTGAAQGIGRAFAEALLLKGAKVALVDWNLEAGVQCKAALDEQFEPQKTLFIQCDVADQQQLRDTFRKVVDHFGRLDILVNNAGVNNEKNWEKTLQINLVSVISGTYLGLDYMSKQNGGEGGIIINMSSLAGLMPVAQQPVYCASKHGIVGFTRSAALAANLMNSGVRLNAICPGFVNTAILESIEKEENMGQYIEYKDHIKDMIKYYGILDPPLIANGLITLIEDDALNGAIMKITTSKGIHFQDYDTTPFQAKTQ
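20 nM HPGD preincubated 15 min at room temperature with compound in 50 mM Tris-HCl pH 8, 0.01% Tween 20. Started with 1 mM NAD+ and 30 uM prostaglandin E2; NADH fluorescence (360/450 nm) read 5 times over 30-s intervals, last minus first.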
The depositor's hits bear a star; ? = inconclusive. On the % scale 0 is the no-effect control and ±100 the full control effect; potency means the concentration at half of the fitted maximal effect. Only part of the results is shown. The share of hits here may be higher or lower than overall.

SMILES	HPGD block
COc1ccccc1-c1ccc2ncnc(NCc3cccnc3)c2c1	?
O=[N+]([O-])c1ccc(N2CCNCC2)cc1Sc1nc2ccccc2[nH]1	-8%
COC(=O)[C@@]1(Cc2ccc(OC)cc2)[C@H]2c3cc(C(=O)N(C)C)n(CCc4ccc(O)c(OC)c4)c3C[C@H]2CN1C(=O)c1ccccc1	-7%
N/C(=N\OC(=O)C12CC3CC(CC(C3)C1)C2)c1ccccn1	0%
Cc1cc(=O)cc2oc3cc(N)c(-c4c(C)cc(O)cc4O)c(C)c3nc1-2	-12%
Cc1cccc(NC(=O)CSc2nc3[nH]ncc3c(=O)[nH]2)c1C	-12%
O=C(Nc1cccc(Br)c1)c1ccc2nc(N3C(=O)CCC3=O)sc2c1	?
CSc1nnc(-c2ccccc2Cl)o1	32µM*
CCOC(=O)N1CCN(C(=O)COc2ccc(S(=O)(=O)NCC(C)C)cc2C)CC1	-24%
CCC(C)NC(=O)COC(=O)Cc1sc(N)nc1-c1ccc(C)cc1 (stereo not given)	-20%
COc1ccc2c(c1)nc1n2CN(CC2CCCO2)CN1Cc1ccccc1 (stereo not given)	-12%
CNC(=O)c1ccc(OCc2ccccc2)c(OC)c1	-5%
CN1CC2=Cc3ccccc3OC23Oc2ccccc2C=C3C1	-1%
COc1ccc(-c2oc3ccccc3c(=O)c2OC(=O)c2ccc(C)cc2)cc1	?
CCOc1ccccc1NC(=O)c1cc(Cl)ccc1NC(=O)c1ccco1	-6%
Oc1ccccc1/C=N/Nc1ncc(Br)cn1	-11%
CC(=O)OCC(=O)C1CCC2C3CC=C4CC(O)CC[C@@]4(C)C3CC[C@]12C (stereo not given in full)	-12%
Cc1ccc(CCNC(=O)c2coc3nc4ccccc4nc23)cc1	?
CNC(=S)NNC(=O)c1ccccc1Br	-14%
Nn1c(SCC(=O)NC2CCCCC2)nnc1-c1ccc(Cl)cc1	-9%
COc1ccc(S(=O)(=O)NCc2cccs2)cc1	-19%
COC(=O)c1c(NC(NC(=O)CC(C)C)C(Cl)(Cl)Cl)sc2c1CCC2 (stereo not given)	-2%
Cc1nn(Cc2cccc(F)c2)c(C)c1NC(=O)c1c([N+](=O)[O-])c(C)nn1C	-3%
Cc1ccc2cc(CN(CCCO)S(=O)(=O)c3cccc4nsnc34)c(=O)[nH]c2c1	-22%
CC(C)(C)NC(=O)Cn1c(SCC(=O)N2CCCCCC2)nc2ccccc21	-18%

By substructure: the compounds so far with a halogen.
SMILES	HPGD block
O=C(Nc1cccc(Br)c1)c1ccc2nc(N3C(=O)CCC3=O)sc2c1	?
CSc1nnc(-c2ccccc2Cl)o1	32µM*
CCOc1ccccc1NC(=O)c1cc(Cl)ccc1NC(=O)c1ccco1	-6%
Oc1ccccc1/C=N/Nc1ncc(Br)cn1	-11%
CNC(=S)NNC(=O)c1ccccc1Br	-14%
Nn1c(SCC(=O)NC2CCCCC2)nnc1-c1ccc(Cl)cc1	-9%
COC(=O)c1c(NC(NC(=O)CC(C)C)C(Cl)(Cl)Cl)sc2c1CCC2 (stereo not given)	-2%
Cc1nn(Cc2cccc(F)c2)c(C)c1NC(=O)c1c([N+](=O)[O-])c(C)nn1C	-3%

Further entries:
SMILES	HPGD block
CCCc1nnc(NC(=O)C(C)N2C(=O)C3C4C=CC(C4)C3C2=O)s1 (stereo not given)	2%
Brc1ccc(-c2nnc3n2CCCCC3)cc1	7.1µM*
CCOC(=O)c1ccc(NC(=O)NCCN2CCCCC2)cc1	-12%
CCN1CCCn2c1nc1c2c(=O)n(C)c(=O)n1C	-10%
CCOc1ccc(-n2cnnn2)cc1S(=O)(=O)NCc1ccccc1	-7%
O=C(NCc1cccnc1)c1cnc2sccn2c1=O	?
O=C(NN=C1CCCCCC1)C(=O)Nc1cccc(Br)c1	-5%
CNC(=S)N/N=C/c1cn(Cc2c(F)cccc2Cl)c2ccccc12	-19%
CC(=O)c1c(O)c(C)c(O)c2c1OC1=CC(=O)C(C(C)=O)C(=O)C12C (stereo not given)	-13%
CCC(Oc1ccc2c(c1)C(=O)CC(C)(C)O2)C(=O)NCCN1CCCCCC1 (stereo not given)	?
CCCN(CCC)CCNS(=O)(=O)c1ccc2c(c1)oc(=O)n2C	-5%
Cc1cc(-n2[nH]c(C)c(C)c2=O)nc(-c2ccccc2O)n1	-6%
COc1ccc(OC)c(/C=C/C(=O)OCC(=O)Nc2cccc(Oc3ccccc3)c2)c1	?
CC(C)=N/N=C1/NC(=O)C(CC(=O)Nc2cc(Cl)ccc2C)S1 (stereo not given)	-11%
Cc1cccc2c(=O)c(C(=O)NCCCN3CCOCC3)c[nH]c12	-8%
Cc1ccc(Nc2nc(-c3c(C)nc4ncccn34)cs2)cc1	?
COc1ccc(NC(=S)NNC(=O)Cn2nc([N+](=O)[O-])cc2C)cc1	-6%
COc1ccc(NC(=O)c2sc(Cl)nc2-c2ccccc2)cc1	-9%
O=C1CCC=C1C(O)c1ccc(Cl)cc1 (stereo not given)	-5%
C=CCCCCCCCCCCC/C=C/C(O)COC(C)=O (stereo not given)	-28%
CC(C)N1CC(O)=C(c2nc3ccccc3c(=O)[nH]2)C1=N	?
CCOc1cc(Cl)c(NC(=O)CC)cc1OCC	-1%
CC(C)[C@@H]1N[C@]2(C(=O)Nc3ccccc32)[C@@H]2C(=O)N(c3cccc(C(F)(F)F)c3)C(=O)[C@@H]21	-2%
COc1ccccc1OCCCOc1ccc(C)cc1Br	?
COc1ccc(C2C(C(N)=O)=C(C)Nc3nc(-c4ccccc4OC)nn32)cc1OC (stereo not given)	-13%

(listing goes on)
SMILES	HPGD block
Cn1c(CC(=O)Nc2ccc(F)cc2)c(Sc2ccccc2)c2ccccc21	-5%
Cc1nc2ccccn2c1C(=O)/C=C/c1ccc(F)cc1	-16%
COc1ccc(OC)c(NC(=O)CSc2ccccc2)c1	-3%
Cc1ccccc1S(=O)(=O)O[C@@H]1NS(=O)(=O)c2ccccc21	1%
CC(/C=N/Nc1nc(N2CCCCC2)nc(N2CCCCC2)n1)=C\c1ccccc1	-29%
Cc1ccc(C(c2nnnn2CS(=O)(=O)c2ccc(C)cc2)N2CCN(c3ncccn3)CC2)cc1 (stereo not given)	-25%
O=C(CCC1CCCCC1)Nc1c2c(nn1-c1ccc(F)cc1)CS(=O)(=O)C2	-7%
COC(=O)Nc1ccc(S(=O)(=O)N2CCCCCC2)cc1	-19%
CCN(CC)S(=O)(=O)N1CCC(C(=O)NCCN2CCOCC2)CC1	-15%
O=C(Nc1ccccc1)NC1(C(=O)N2CCN(c3ncccn3)CC2)CCCCC1	-6%
Cc1cccc(NS(=O)(=O)c2cc(C(=O)O)ccc2Cl)c1	-8%
COc1ccc2cc(CN(Cc3cccnc3)S(=O)(=O)c3ccccc3)c(=O)[nH]c2c1	-29%
CC1CCC2(CC1)NC(=O)N(CC(=O)Nc1ccc(N3CCOCC3)cc1)C2=O (stereo not given)	-6%
O=C(NCCCCC(NC(=O)c1ccc([N+](=O)[O-])cc1)C(=O)O)c1ccc([N+](=O)[O-])cc1 (stereo not given)	-4%
O=C1CC(C(=O)Nc2cccc3ccccc23)C2(CCCC2)O1 (stereo not given)	-16%
CCOC(=O)c1c(NC(=O)CSc2nnc(C)s2)sc2c1CCN(C)C2	-19%
Cc1cccc(Nc2ccccc2C(=O)NCc2ccco2)c1C	-6%
COc1ccc(CCNC(=O)c2cccnc2)cc1	-9%
CCCCC(=O)Nc1nn(CC(C)C)c2nc3ccccc3cc12	?
CCOC(=O)c1cnc(SCc2ccc(C(C)(C)C)cc2)nc1N	-20%
Cc1cccc(Oc2cc(N)cc([N+](=O)[O-])c2)c1	-13%
COc1ccc2c(c1)CC/C(=C/c1ccco1)C2=O	?
COCCn1c(-c2ccccc2Cl)nc2c(c(=O)c3ccccc3n2C)c1=O	-2%
CC1CCN(CCOc2ccccc2-c2ccccc2)CC1	6%
COC(=O)C1=C(C)Nc2ncnn2C1c1ccccn1 (stereo not given)	-19%

Further structures follow.
SMILES	HPGD block
Cc1c(Cl)cccc1NC(=O)CC1NCCNC1=O (stereo not given)	-9%
CCc1nc(N2CCC3(CC2)OCCO3)c2nnn(Cc3ccccc3Cl)c2n1	-20%
COc1ccc(Cn2nnnc2CN2CCc3ccccc3C2)cc1	-10%
COc1cc2c(cc1OC)-c1cc3ccc4c(c3c[n+]1CC2)OCO4	?
NC(=O)c1ccsc1NC(=O)C1CCCN1S(=O)(=O)c1ccc(Cl)cc1 (stereo not given)	?
CC(=O)NCCCc1nc2ccccc2n1Cc1ccc(C)cc1	-7%
CCOC(=O)N1CCN(C(=O)CCN2C(=O)COc3ccc(C)cc32)CC1	-4%
Cc1cc(C)cc(NC(=O)CC2NCCNC2=O)c1 (stereo not given)	-7%
Cn1c(CN2CCCCC2)c(C#N)c2ccccc21	-5%
CS(=O)(=O)n1nc(C(=O)N2CCOCC2)nc1N	-11%
CCCOc1cccc(C(=O)N(Cc2ccco2)C2CCS(=O)(=O)C2)c1 (stereo not given)	-16%
O=C(c1ccc(N2CCCCC2)c([N+](=O)[O-])c1)N1CCOCC1	-15%
Cc1cc(Cl)c(S(=O)(=O)N2CCCC2)cc1OCC(=O)NC1CCCCC1	-15%
C=COCCNC(=O)Nc1ccc(Cl)c(Cl)c1	20µM*
COC(=O)c1cn[nH]c1NC(=S)Nc1ccc(Cl)c(Cl)c1	-24%
COc1ccc(C(=O)N2CCC3(CC2)CCN(c2ncccn2)CC3)cc1	-4%
COC(=O)c1cc(C(=O)Nc2nnc(CC(C)(C)C)s2)cc([N+](=O)[O-])c1	16µM*
Cn1c(=O)c2[nH]c(CNCc3ccccc3Cl)nc2n(C)c1=O	-22%
CCOC(=O)C1=C(C(C)=O)C(c2cccnc2)C(C#N)=C(N)O1 (stereo not given)	-4%
CCOC(=O)c1[nH]c2ccccc2c1NC(=S)Nc1cc(C)ccc1C	?
COCCCNS(=O)(=O)c1ccc(OC)c(Cl)c1Cl	-9%
Cc1ccc(OCc2nnc(SCc3ccc(C#N)cc3)n2-c2ccc(C)cc2)cc1	-7%
CCOC(=O)c1c(C)[nH]c(C)c1C(=O)COC(=O)c1ccc(S(=O)(=O)N(CC)CC)cc1	3%
Cc1cccc(C2NC(=O)c3c(sc(C)c3C)N2)c1O (stereo not given)	?
Cc1nc2cnc(N3CCNCC3)nc2n(CCC#N)c1=O	?

An excerpt from above in order of molar mass, falling.
SMILES	HPGD block
CC(=O)NCCCc1nc2ccccc2n1Cc1ccc(C)cc1	-7%
O=C(c1ccc(N2CCCCC2)c([N+](=O)[O-])c1)N1CCOCC1	-15%
CCOC(=O)C1=C(C(C)=O)C(c2cccnc2)C(C#N)=C(N)O1 (stereo not given)	-4%
CS(=O)(=O)n1nc(C(=O)N2CCOCC2)nc1N	-11%

Other compounds:
SMILES	HPGD block
COc1ccc(CCN2C(=O)CS/C2=N\NC(=O)c2ccc(C(C)(C)C)cc2)cc1OC	1%
O=S1(=O)N=C(N2CCOCC2)c2ccccc21	0%
C=CCNC(=O)NC(=S)c1ccccc1	-6%
COc1ccccc1N1CCN(c2nnc(-c3ccc(F)cc3)c3ccccc23)CC1	-3%
COc1cc(/C=C/C(=O)N(C)c2ccccc2C(=O)O)cc(OC)c1OC	-9%
COc1cccc(NC(=O)c2oc3ccccc3c2NC(=O)c2ccc3c(c2)OCO3)c1	?
Cc1cccc2c1[nH]c1nc(N/N=C\c3ccco3)nnc12	-7%
COc1cccc(C(=O)NC2(C(F)(F)F)N=C3SCCN3C2=O)c1 (stereo not given)	2%
CN1CCC[C@H](C(=O)OCC(=O)[C@]2(O)CC[C@@H]3[C@H]4CCC5=CC(=O)CC[C@@]5(C)[C@H]4[C@@H](O)C[C@]32C)C1	-7%
CC1(C)CC(=O)C2=C(C1)OC(N)=C(C#N)C21C(=O)N(Cc2ccccc2Cl)c2ccccc21 (stereo not given)	-2%
Nc1nc2c(F)cccc2s1	-8%
CCC(=O)N/C(=N/c1nc(C)cc(C)n1)Nc1ccc(OC)cc1	-9%
CCC(NC(=S)Nc1ccccc1)C(=O)O (stereo not given)	-4%
CCc1nnc(NS(=O)(=O)c2ccc(NC(=S)NC(=O)/C=C/c3ccc(C(C)C)cc3)cc2)s1	25µM*
CCCCn1c(SCC(=O)OCC)nc2c1c(=O)[nH]c(=O)n2C	?
CC1=NN(c2ccc([N+](=O)[O-])cc2)C(=O)/C1=C\N(C)C	-9%
COc1ccccc1-n1c2nc3ccccc3nc2c2c(=O)n(-c3cc(C)cc(C)c3)cnc21	?
Oc1cccc(Nc2ncnc3ccccc23)c1	-30%
Cc1cc(=O)oc(C)c1C(=O)NCCc1ccc(F)cc1	-14%
C#CCOCCOCCOCCNc1nc(N2CCN(C(=O)[C@H]([C@@H](C)CC)n3cc(CCCN=C(N)N)nn3)CC2)nc(N2CCN(C(=O)[C@H]([C@@H](C)CC)n3cc(CCCN=C(N)N)nn3)CC2)n1	-7%
Cc1ccc(NC(=O)c2cc([N+](=O)[O-])ccc2NCc2cccnc2)cc1Cl	-9%
COc1ccccc1NC(=O)CSc1nnc(Cn2c(=O)sc3ccccc32)n1C	-10%
Cn1nnnc1Sc1ncnc2scc(-c3ccccc3)c12	-1%
S[C@@H]1CCCN(Cc2ccccc2)C1	-1%
O=C(Cn1ccc2ccccc2c1=O)NCCC(=O)N1CCN(c2cccc(C(F)(F)F)c2)CC1	-2%
Cc1cccc(NC2=C/C(=N/S(=O)(=O)c3cccs3)c3ccccc3C2=O)c1	-13%
Cc1nc(NC(=O)c2ccc([N+](=O)[O-])cc2Cl)sc1C(=O)N(C)C	14µM*
CCNc1nc(NC(C)C)nc(OCCNS(=O)(=O)c2cc(C)ccc2C)n1	1%
CCCn1c(NC(=O)C2CCN(S(=O)(=O)c3cccs3)CC2)nc2ccccc21	-5%
O=C1C=CN(C(=O)Oc2ccccc2)CC1	-11%
